# Source: PubChem
# Vaccinia mCherry = inhibitors of vaccinia virus infection (mCherry reporter signal). Vaccinia virus mCherry reporter infection, fluorescence; about a quarter of the inactives have no number. Potency, µM (titrated, usually from 36.5 µM), for the others: at the top dose activity change, negative = inhibition, actives largely listed as inhibitors. actives 0.63% (n = 310,000); active = well fitted inhibition curve with a large enough effect; inconclusive = small, poorly fitted or top-dose-only effect; inactive = no such curve, though single readings can be large or run the other way; tested in A549 cells; note: nearly all actives have a fitted effect of over 35% in size; inactives centre near -10
# Vaccinia Venus = inhibitors of vaccinia virus (Venus reporter); Potency, µM (doses to about 36.5 µM), without a hit: at the highest dose activity change, negative = inhibition, actives largely listed as inhibitors; actives 0.46% (n = 330,000); Vaccinia virus Venus reporter expression, fluorescence; active means well fitted inhibition curve with a large enough effect; inconclusive means small, poorly fitted or top-dose-only effect; inactive means no such curve, though single readings can be large or run the other way; tested in A549 cells; note: nearly all actives have a fitted effect of over 30% in size; inactives centre near -10
# Active calls of the source: *; i = inactive; u = inconclusive; x = no result given; [ ] = dose if it differs, or a comment. % is set by controls: 0 for no effect and ±100 for the full control effect; potency is the fitted concentration of half-maximal effect.
SMILES,Vaccinia mCherry,Vaccinia Venus
CCOC(=O)c1cccc(NC(=O)C2CCN(c3nnc(C)c4c(C)n(-c5ccccc5)nc34)CC2)c1,i,-23%
O=C(Nc1ccccc1)OCCNC(=O)c1cccc(Cl)c1,x,-22%
COc1cccc(C2CC(c3cccc(C)c3)n3ncnc3N2)c1 (configuration not stated),-8%,-2%
CC1CCCN(C(=O)COC(=O)c2cc(Br)ccc2O)C1 (configuration not stated),0%,-9%
CCOc1cc(/C=N/NC(=O)CN2CCCCC2)ccc1OCc1cccc(Cl)c1,u,-24%
COc1cc(C)c(C)cc1S(=O)(=O)Nc1cccc(-c2ccc(N3CCOCC3)nn2)c1,i,-8%
CCN(CC)CCN(C(=O)c1ccco1)c1nc2c(C)cccc2s1,-13%,-3%
CSc1nsc(SCC(=O)Nc2ccccc2C(=O)O)n1,i,4%
COc1ccccc1OCCNC(=O)c1cc(C2CC2)nc2c1cnn2C(C)C,-29%,-25%
CSc1nc(-c2ccco2)nn1S(=O)(=O)c1ccc(C)cc1,-6%,0%
C[C@H](CO)N1C[C@H](C)[C@@H](CN(C)S(=O)(=O)c2ccccc2)Oc2c(NC(=O)Nc3ccc4c(c3)OCO4)cccc2C1=O,-1%,-21%
CC1(C)CCc2cc(-c3ccn(S(=O)(=O)c4ccccc4Cl)n3)ccc2O1,-12%,-16%
Cn1c(=O)c2c(nc(SCC(=O)Nc3ccccc3F)n2Cc2ccc(Cl)cc2)n(C)c1=O,-6%,-3%
CNS(=O)(=O)c1cn(CC(=O)Nc2cccc(C(F)(F)F)c2)cc1S(=O)(=O)NC,-8%,2%
COc1ccc(S(=O)(=O)NCCc2sc(C)nc2C)cc1,-2%,-1%
COCCN(C(=S)Nc1ccc(C)cc1)C(C)c1ccco1 (configuration not stated),i,-5%
O=C(Cc1ccccc1[N+](=O)[O-])NC1CC2CCC1C2 (configuration not stated),-19%,-15%
Cc1cc(C)n2c(Nc3ccccc3C)c(-c3cccs3)nc2n1,i,-10%
c1ccc2c(c1)CCN(C1=Nc3cccc4cccc1c34)C2,37%[activator],119%[activator]
Cc1ccc(NC(=O)C2CCCN(S(=O)(=O)c3cnc[nH]3)C2)cc1C (configuration not stated),12%,-7%
CCCCOC(=O)c1ccc(OC(=O)c2sc3ncn(Cc4ccccc4Cl)c(=O)c3c2C)cc1,-2%,-9%
O=C(Nc1cc(C(F)(F)F)cc(C(F)(F)F)c1)[C@H]1O[C@@H](n2ccc(=O)[nH]c2=O)[C@H](O)[C@@H]1O,7%,3%
COc1ccc(C2=NOC(C)(c3sc(-c4ccc(Cl)cc4)nc3C)C2)cc1 (configuration not stated),i,-10%
CN(C)CCCNC(=O)C(=O)Nc1ccc2c(c1)N(S(=O)(=O)c1cccs1)CCC2,-3%,-22%
COc1ccc(C(c2sc3nc(C)nn3c2O)N2CCN(CCO)CC2)cc1OC (configuration not stated),-1%,0%
COc1ccc(CN2CC(C(=O)NCCCN3CCOCC3)CC2=O)cc1 (configuration not stated),x,1%
O=C(COC(=O)c1ccc2c(c1)OCCO2)Nc1ccc(F)cc1,-22%,-16%
O=C(Nc1cccc(S(=O)(=O)N2CCOCC2)c1)c1cn(-c2ccccc2)nc1-c1ccccc1,i,-14%
CN(CC(=O)Nc1ccccc1Br)C(=O)CNC(=O)c1ccco1,i,-18%
O=C(CSC1=NS(=O)(=O)c2ccccc2N1)Nc1cccc(F)c1,-11%,-9%
Cc1ccc2c(C(=O)CSc3ccccc3)c(C)[nH]c2c1,-13%,-7%
COc1ccc(N(C(=O)c2ccco2)S(=O)(=O)c2cc(Cl)c(Cl)cc2Cl)cc1,-28%,u
Cc1nc2ccccc2c(=O)n1NC(=O)c1ccccc1[N+](=O)[O-],3%,-6%
CCC(C)(C)C1CCC2(CC1)NC(=O)N(CC(=O)NCCc1ccc(OC)c(OC)c1)C2=O (configuration not stated),i,-24%
CN(Cc1ccccc1)CC(O)COc1ccc(CNCc2nccn2C)cc1 (configuration not stated),-15%,-2%
NC(=O)CC(NC(=O)c1ccc(Br)cc1)c1ccc(NCc2ccc(F)cc2)c([N+](=O)[O-])c1 (configuration not stated),u,-24%
CCOC(=O)CNC(=O)C(CO)NC(=O)OCc1ccccc1 (configuration not stated),i,-13%
C/C(=N\OC(=O)c1cccc(Cl)c1)c1sc(C)nc1C,x,-29%
Cc1c(C(c2ccc(C(=O)O)cc2)c2c(C)n(C)n(-c3ccccc3)c2=O)c(=O)n(-c2ccccc2)n1C,-14%,-2%
CCNc1nc(NC(C)C)nc(N(C#N)Cc2ccccc2)n1,x,u

# Four of the compounds above, bar-delimited.
structure | Vaccinia mCherry | Vaccinia Venus
CCOC(=O)CNC(=O)C(CO)NC(=O)OCc1ccccc1 (configuration not stated) | i | -13%
CCC(C)(C)C1CCC2(CC1)NC(=O)N(CC(=O)NCCc1ccc(OC)c(OC)c1)C2=O (configuration not stated) | i | -24%
O=C(Nc1cc(C(F)(F)F)cc(C(F)(F)F)c1)[C@H]1O[C@@H](n2ccc(=O)[nH]c2=O)[C@H](O)[C@@H]1O | 7% | 3%
Cc1c(C(c2ccc(C(=O)O)cc2)c2c(C)n(C)n(-c3ccccc3)c2=O)c(=O)n(-c2ccccc2)n1C | -14% | -2%

# (list continues)
SMILES,Vaccinia mCherry,Vaccinia Venus
COc1ccc(CN2CCc3cc(OC)c(OC)cc3C2)cc1O,-13%,-19%
CCOC(=O)c1sc(Nc2cccc(Cl)c2)nc1C,-3%[7.34 µM],-13%[7.34 µM]
CCOc1ccc(CCNC(=O)c2cc(C)nn2-c2ccccc2)cc1,-12%,-12%
O=C(NCC1CCCN1S(=O)(=O)c1cccs1)c1c(F)cccc1F (configuration not stated),-14%,-13%
COc1cccc(CN2CCC2(C)C(=O)NCCc2ccccn2)c1OC (configuration not stated),15%,2%
Cc1c(CN2CCC(CO)(CC3CCCCO3)CC2)cnn1C (configuration not stated),i,2%
CN(C)c1ccc(CNC(=O)C2(C)Cc3c(-c4ccc(N(C)C)cc4)ccnc3O2)cc1 (configuration not stated),-23%,u
Cc1cc(OCC(=O)NC(Cc2ccc(Cl)cc2)C(=O)O)c2c(C)cc(=O)oc2c1 (configuration not stated),-1%,4%
COC(=O)CN1C(=O)Nc2ccc(Cl)cc2C1c1ccccc1 (configuration not stated),-8%,-25%
CCOc1ccc2nc(NC(=O)Cc3cccs3)sc2c1,u,-27%
Cn1c(=O)c2[nH]c(C3CCC3)nc2n(C)c1=O,i,-11%
O=C(Nc1nnc(-c2ccccc2)s1)c1ccccc1F,i,-23%
Oc1ccc(/C=N\Nc2nncc(-c3ccccc3)n2)cc1,u,-14%
COc1cccc(C(O)c2nc(-c3cccc(CO)c3)cs2)c1 (configuration not stated),9%,-2%
N#Cc1c(Cl)nc(-c2ccncc2)nc1-c1ccccc1,i,-8%
CCCN(CCC)CCCNc1ccc2nnc(-c3ccc(F)cc3)n2n1,-2%,-9%
CCC(C)NS(=O)(=O)c1ccc(NC(C)=O)cc1 (configuration not stated),-9%,0%
COC(=O)c1cc(NC(=O)CC(=O)c2cccc(N)c2)cc(C(=O)OC)c1,-7%,-14%
O=C1C2C(C(=O)N1/N=C/c1ccc(N3CCCCC3)o1)C1C=CC2C12CC2 (configuration not stated),-7%,-3%
CCCCC(=O)C1CCN(Cc2ccccc2)CC1,x,-10%

# In another format: entries from further up
SMILES	Vaccinia mCherry	Vaccinia Venus
COc1cccc(C(O)c2nc(-c3cccc(CO)c3)cs2)c1 (configuration not stated)	9%	-2%
N#Cc1c(Cl)nc(-c2ccncc2)nc1-c1ccccc1	i	-8%
CCCN(CCC)CCCNc1ccc2nnc(-c3ccc(F)cc3)n2n1	-2%	-9%
CCC(C)NS(=O)(=O)c1ccc(NC(C)=O)cc1 (configuration not stated)	-9%	0%
COC(=O)c1cc(NC(=O)CC(=O)c2cccc(N)c2)cc(C(=O)OC)c1	-7%	-14%
O=C1C2C(C(=O)N1/N=C/c1ccc(N3CCCCC3)o1)C1C=CC2C12CC2 (configuration not stated)	-7%	-3%

# Continued:
SMILES,Vaccinia mCherry,Vaccinia Venus
Cn1c(-c2ccccc2)cnc1NCc1ccccc1O,2%,2%
O=C(O)c1ccccc1-c1cc2ccccc2[nH]1,-14%,-5%
Cc1ccc(N(CC(O)CON=C2c3ccccc3-c3ccccc32)S(C)(=O)=O)cc1 (configuration not stated),-16%,u
CCCCNC(=S)N/N=C/c1ccc(OCC(=O)Nc2c(C)cc(C)cc2C)c(OC)c1,-4%,-12%
Cc1cccc(NC(=O)COc2nsnc2N2CCOCC2)c1,i,-11%
c1csc(CNCc2ccncc2)c1,i,-10%
CCOC(=O)C1=C(C)N(CCCCCC(=O)O)C(=O)NC1c1ccccc1Cl (configuration not stated),0%,-2%
O=C(Nc1nccs1)c1ccc2c(c1)OCO2,-8%,-3%
O=C(Nc1cc(S(=O)(=O)N2CCOCC2)ccc1N1CCCCC1)c1ccccc1Br,-13%,-11%
Cn1c(N)c(C(=O)NCc2ccccc2Cl)sc1=S,x,-23%
S=C(NCc1ccccc1)NCc1cccc(Cl)c1,0%,-13%
OC1(c2cccc(C(F)(F)F)c2)CCN(c2ncnc3c2[nH]c2ccc(F)cc23)CC1,x,11µM*
Cc1ccc(NS(=O)(=O)c2ccc(C)c(C(=O)Nc3ccc(S(=O)(=O)Nc4onc(C)c4C)cc3)c2)cc1,-15%,-13%
COc1ccccc1NC(=O)NCC1CC1(Cl)Cl (configuration not stated),6%,4%
Cc1ccc(C(=O)CSC2=C(C#N)C(c3ccco3)C3=C(CC(C)(C)CC3=O)N2)cc1 (configuration not stated),u,-30%
O=C(NC1CCCCC1)C(c1ccncc1)N(C(=O)c1csnn1)c1cccc(F)c1 (configuration not stated),-1%,7%
O=C(COCC(=O)N/N=C/c1ccc(F)cc1)N/N=C/c1ccc(F)cc1,-19%,-10%
Cc1onc(-c2c(F)cccc2Cl)c1C(=O)N1CCSCC1,i,-9%
Cc1cc(NC(=O)COc2cccnc2[N+](=O)[O-])no1,i,-6%
C=CCn1c(COc2ccc(F)cc2)nnc1SCC(=O)Nc1cccc(S(N)(=O)=O)c1,-13%,-15%

# Reformatted with bars between the fields: part of the list above
SMILES | Vaccinia mCherry | Vaccinia Venus
Cn1c(N)c(C(=O)NCc2ccccc2Cl)sc1=S | x | -23%
Cc1ccc(C(=O)CSC2=C(C#N)C(c3ccco3)C3=C(CC(C)(C)CC3=O)N2)cc1 (configuration not stated) | u | -30%
O=C(COCC(=O)N/N=C/c1ccc(F)cc1)N/N=C/c1ccc(F)cc1 | -19% | -10%
COc1ccccc1NC(=O)NCC1CC1(Cl)Cl (configuration not stated) | 6% | 4%
c1csc(CNCc2ccncc2)c1 | i | -10%
Cc1cc(NC(=O)COc2cccnc2[N+](=O)[O-])no1 | i | -6%

# (more compounds)
SMILES,Vaccinia mCherry,Vaccinia Venus
CC1=NCC(C)c2ccccc21 (configuration not stated),i,0%
CCc1cccc(C)c1NC(=O)c1cc(S(=O)(=O)N2CCOCC2)cn1C,-17%,-6%
CC(Sc1nc2ccccc2s1)C(=O)NCc1ccc2c(c1)OCO2 (configuration not stated),-6%,-9%
Cc1ccc(C(=O)OC(C)CN2CCOCC2)cc1 (configuration not stated),-20%,-14%
Cc1cc(O)c(Sc2ccccc2)c(=O)o1,-1%,3%
COc1cc(C=O)ccc1OCCCOc1ccccc1C(=O)O,x,-19%
CCSc1nnc(NC(=O)CSC2=NCCS2)s1,i,-13%
Cc1ccc(-c2n[nH]c(=S)n2/N=C/c2cccn2C)cc1,20%,15%
COc1ccc(C(=O)OCC(=O)N2C(C)CCCC2C)cc1S(=O)(=O)N1CCOCC1 (configuration not stated),-10%,-16%
CCOC(=O)c1c(NC(=O)CN2CCCc3ccccc32)sc(C)c1CC,-13%,-10%
COc1ccc(-c2c(C)nn(Cc3ccccc3)c2N)cc1,i,-14%
CC(=NNC(=O)c1ccccc1N)c1ccccc1O,u,u
Cn1c(-c2ccccc2)cc(=O)n1-c1ccccc1,-4%,-6%
Cc1ccc(C2=CC(=O)CC(C)(C)C2)cc1,i,-27%
O=c1[nH]c(N2CCc3ccccc32)nc2c1CCCC2,x,-16%
Cc1nc(C)c(C(=O)C2=C(O)C(=O)N(CCN3CCOCC3)C2c2ccco2)s1 (configuration not stated),x,-8%
Cc1cc2c(cc1C)-n1nnnc1C(N1CCN(CC(=O)N3CCCC3)CC1)C(=O)N2 (configuration not stated),-11%,0%
CCCN(CCC)CCCNC(=O)c1cn(CC)c2ccc(S(=O)(=O)N(C)C3CCCCC3)cc2c1=O,-19%,-16%
CC(C)NC(=O)CN(C(=O)CCC(=O)Nc1ccccn1)c1ccc(F)c(Cl)c1,x,-6%
CCc1cnc2c(c1SCC(=O)Nc1ccc(Cl)cc1)c(=O)n(C)c(=O)n2C,-13%,-15%
O=C(CSc1nc2[nH]c(=O)cc(O)c2s1)NCCc1ccccc1,-9%,-7%
S=c1[nH]nc(Nc2ccccc2)s1,-11%,-11%
CC(=O)C1CCCN(C(=O)c2ccc3nc(Cc4cccc(Cl)c4)oc3c2)C1 (configuration not stated),i,-19%
COc1ccc(C(=O)/C=C/Nc2ccc(S(N)(=O)=O)cc2)cc1OC,i,-13%
CC1CC(C)(C)NC(=S)N1CC(=O)N1CCN(Cc2ccccc2)CC1 (configuration not stated),i,2%
CSCCC(NS(=O)(=O)c1ccc(Br)cc1)C(=O)OCC(=O)NC1CC1 (configuration not stated),i,-15%
Cc1c(NC(=O)Nc2cc(Cl)ccc2Cl)c(=O)n(-c2ccccc2)n1C,-9%,-9%
CCOc1ccc(C2=Nn3c(nnc3-c3ccccc3)SC2)cc1Cl,i,u
COc1cccc(NC(=O)c2cccc(N3C(=O)C4CCC(C)CC4C3=O)c2)c1 (configuration not stated),i,-4%
N#CC1=C(N)N(c2ccc(F)cc2)C2=C(C1c1ccc(O)cc1)S(=O)(=O)CC2 (configuration not stated),-2%,15%
